Calb biofilm kill = mixture kills Candida albicans biofilm cells; inhibition, % at 7.6 µM; C. albicans biofilm persisters + clotrimazole, fluorescence viability; primary screen in compound mixtures of four per well; 120,000 compounds, 0.02% hits; AID 1242;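 active = inhibition above 30.3% in the primary screen of four-compound pools, then above 30% when the compound was retested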;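 also: compounds exposed to preformed 24 h biofilms for 48 h; the number belongs to the whole pool; some results filed as inactive read as strong as hits; inactives centre near 12; 0% = biofilm with clotrimazole alone and 100% = kill control; retested singly at about 60 µM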
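Incubation: 24 h biofilm formation, then 48 h compound exposure, 37 °C | Material: C. albicans biofilms | Buffer or medium: RPMI/MOPS medium, pH 7.0 | Measured by: 2-h Alamar Blue fluorescence, 535/590 nm excitation/emission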
* = called active by the depositor.

SMILES	Calb biofilm kill
O=c1c([N+](=O)[O-])cccn1Cc1cccc(Cl)c1	12
CCOc1ccc(Nc2nc(N)nc(CN3CCN(c4ccccc4F)CC3)n2)cc1	12
COc1ccc(-c2nc(=S)[nH][nH]2)cc1OC	10
CCn1c(SCC(=O)N2CCCC2)nc2ccccc21	5
CCNS(=O)(=O)c1ccc(NC(=O)Nc2cc(C)ccc2OC)cc1	26
CS(=O)(=O)N(CCC#N)Cc1ccco1	20
CCC1CCCCN1C(=O)c1sc2ncnc(N(CC)CC)c2c1C (stereo unspecified)	20
O=C(CNS(=O)(=O)c1ccc(Cl)cc1)N/N=C/c1ccco1	8
NC(=O)CC(NC(=O)Cc1cccc2ccccc12)c1ccc(NCCOc2ccccc2)c([N+](=O)[O-])c1 (stereo unspecified)	21
Cc1ccc(C(C(=O)NCC2CCCO2)N(Cc2ccccc2)C(=O)c2ccc(-c3ccccc3)[nH]2)o1 (stereo unspecified)	12
O=C(COc1cccc(Br)c1)N/N=C/C(=O)c1ccccc1	29
CC(/C=N/NC(=O)c1cc(-c2ccc(C)o2)[nH]n1)=C\c1ccccc1	25

Shown with each value named: entries from further up.
CS(=O)(=O)N(CCC#N)Cc1ccco1
  Calb biofilm kill: 20
O=C(CNS(=O)(=O)c1ccc(Cl)cc1)N/N=C/c1ccco1
  Calb biofilm kill: 8
CC(/C=N/NC(=O)c1cc(-c2ccc(C)o2)[nH]n1)=C\c1ccccc1
  Calb biofilm kill: 25

Carrying on.
SMILES	Calb biofilm kill
CC1(c2ccccc2)NC(=O)N(CC(=O)Nc2cc(S(=O)(=O)N3CCOCC3)ccc2Cl)C1=O (stereo unspecified)	19
O=C(Nc1ccccc1)N1N=CCC1c1ccccc1 (stereo unspecified)	13
CNc1cc(N2CCN(S(=O)(=O)N(C)C)CC2)ccc1[N+](=O)[O-]	10
Cc1nn(Cc2cccc(Oc3ccccc3)c2)c(C)c1NC(=O)NC12CC3CC(CC(C3)C1)C2	11
COc1cccc(/C=N/NC(=O)c2cnn(-c3ccccc3)c2N)c1	24
O=C(O)c1ccc(-n2c(=O)c3ccccc3c3ccccc3c2=O)cc1	24
CC(C)C(=O)NC(=S)Nc1ccc(S(=O)(=O)N(C)C)cc1	8
COc1ccccc1CN(C)CC(=O)Nc1ccc(Cl)cc1C(F)(F)F	16
Cc1cccc(N=Nc2c(C)[nH]n(C(N)=S)c2=O)c1C	8
CCOc1ccc(C(C)=O)cc1CSc1nc(C)cc(C)n1	7
CCCN(CC1CC1)C(=S)Nc1ccccc1F	0
O=C(NC(=S)Nc1cccnc1)c1cccs1	23
COc1c(C)cc(C(=O)C2CCCN(Cc3cnc(N4CCOCC4)s3)C2)cc1C (stereo unspecified)	27
Cc1cccc(/C=N/N2CCN(c3ccccc3)CC2)c1	16
O=C(NC1CCCC1)C(c1ccccc1)N(Cc1cccnc1)C(=O)Cc1cccs1 (stereo unspecified)	1
CCOc1ccccc1NC(=O)Cn1nnc(C(=O)NCCc2ccc(OC)c(OC)c2)c1N	6
C/C=C/C(=O)OCC(=O)Nc1ccccc1Br	-1
Cc1ccc(S(=O)(=O)NNC(=O)C(O)(c2ccccc2C)c2ccccc2C)cc1	14
CN(C)CC/C=C1/c2cc(F)ccc2CSc2ccc(F)cc21	7
Cc1nc2ccccc2n1C(=O)N(C)C	13
Fc1ccc(CSc2ccc3nnc(-c4cccnc4)n3n2)cc1	16
CSc1cccc(NC(=S)N2CCC(N(C)C3CCCC3)CC2)c1	15
CCOC(=O)C1(CC2CCCCO2)CCN(C(=O)Nc2ccc3c(c2)OCO3)CC1 (stereo unspecified)	16
Cc1ccc(NC(=O)CN(C)C(=S)NC2CC2)cc1	6
COCCNS(=O)(=O)c1cc(OC)c(C)cc1C	8
CCOC(=O)NN1C(=O)c2ccccc2NC1c1ccccc1 (stereo unspecified)	23
CC(C)OC(=O)CSc1nnc(CNc2ccc(Cl)cc2)n1Cc1ccccc1	10
CN(C)CCCN(Cc1cc2cc3c(cc2[nH]c1=O)OCO3)C(=S)Nc1ccccc1	28
CC(C)(C)NC(=O)COC(=O)c1ccccc1NC(=O)c1ccco1	17
Cn1cccc1CC(=O)NNC(=S)Nc1ccc(Cl)cc1Cl	16
COc1cc(/C=N/S(=O)(=O)CCc2ccccc2)cc(OC)c1O	4
COc1ccc(-c2cc(-c3ccccc3)nc(SCC(=O)Nc3ncc(C)s3)c2C#N)cc1	3
C/C(=N\NC(N)=S)c1ccc(-n2ccnc2)cc1	15
CC1(C)CC(=O)C2=C(C1)N(c1ccccc1)C(=O)C2(O)C(F)(F)F (stereo unspecified)	12
NNCCc1ccccc1	16
COc1ccc(C2=NN(C(=O)COc3ncnc4ccccc34)C(c3ccco3)C2)cc1 (stereo unspecified)	-5
CC1=NNC(=O)C1CC(=O)N/N=C/C(Br)=C/c1ccccc1 (stereo unspecified)	18
O=C1C=CC(=O)N1CCNc1ncc(C(F)(F)F)cc1Cl	9
CC(NC(=O)C(c1ccccc1)c1ccccc1)C(=O)N1CCCCC1 (stereo unspecified)	8
CC(C)N1C(=O)CSC1c1ccc(Br)cc1 (stereo unspecified)	7
Fc1ccc(-n2nnc(-c3nccs3)n2)cc1	21
COC(=O)c1ccc(Nc2cc(C)nc3ccccc23)cc1	27
O=S(=O)(c1ccc(Br)cc1)N1CCCN(Cc2cccc(F)c2)CC1	11
CC(C)(C)OC(=O)NC1CONC1=O (stereo unspecified)	7
CCCCn1c(SCC(=O)Nc2cc(C(F)(F)F)ccc2Cl)nnc1C(CC)N(C)C (stereo unspecified)	11
O=C(N/N=C/c1ccc(-c2ccccc2Cl)o1)c1ccccc1	8
Cc1c(C(=O)Nc2nc3ccccc3[nH]2)oc2ccccc12	8
O=C(COC(=O)C1(c2ccccc2F)CCCC1)NCc1ccc2c(c1)OCO2	9
Cc1ccc(N(CCC#N)C(=O)CCl)cc1C	12
CCOc1ccc(S(=O)(=O)N(CC)CC)cc1N	0
O=C(c1ccc(Cn2c(=S)[nH]c3ccc(N4CCOCC4)cc3c2=O)cc1)N1CCN(c2ccc(F)cc2)CC1	1
Cc1cccc(C(=O)Nc2ccc(N3CCN(c4ccc(C(F)(F)F)cn4)CC3)nc2)c1	7
CC(C)c1[nH]nc2c1C(c1ccco1)C(C#N)=C(N)O2 (stereo unspecified)	10
N#CC1CCCc2c1[nH]c1ccc([N+](=O)[O-])cc21 (stereo unspecified)	21
c1ccc(C2c3[nH]c4ccccc4c3CCN2Cc2cccn2-c2ccccn2)nc1 (stereo unspecified)	24
CSCC[C@H](NC(=O)c1cc([N+](=O)[O-])ccc1Cl)c1nc2ccccc2[nH]1	5
CCCC(C)NC(=S)Nc1cc(C)cc(C)c1 (stereo unspecified)	7
N#Cc1cnn2cc(CCN3CCOCC3)c(-c3ccc(F)cc3)nc12	1
O=C(O)C(Cc1cc2ccccc2[nH]1)N1C(=O)C2CC=C(Cl)CC2C1=O (stereo unspecified)	8
c1ccc(-c2ccccc2OCc2nnc3n2CCC3)cc1	-5

Continuation:
SMILES	Calb biofilm kill
OCC1(Cc2ccccc2)CCCN(Cc2c[nH]c3ccccc23)C1 (stereo unspecified)	21
COc1cccc(Cn2cc(N)cn2)c1	13
COCCN(CCOC)c1ncnc2c1cnn2-c1ccccc1	7
O=c1c2ccccc2nnn1Cc1ccc2ccccc2c1	8
COc1ccc(CCNC(=O)Cn2cnc3sc(C)c(-c4ccc(F)cc4)c3c2=O)cc1OC	9
Cc1c(-c2ccc(F)cc2)nc(N)c(C#N)c1-c1cccnc1	3
COc1nc(Cl)cn(-c2ccc(C)cc2)c1=O	14
CCOC(=O)C1=C(N)OC2=C(C(=O)CC(C)(C)C2)C1c1cccs1 (stereo unspecified)	15
N#Cc1ccccc1OCC(O)CS(=O)(=O)c1ccccc1 (stereo unspecified)	15
Cn1cncc1C(=O)c1ccccc1	18
COc1ccc2c3c([nH]c2c1)C1CC2C(CC(O)C(OC)C2C(=O)O)CN1CC3 (stereo unspecified)	24
Cc1c([N+](=O)[O-])cc(C(=O)Nc2ccc(Cc3ccncc3)cc2)cc1[N+](=O)[O-]	-2
CCOC(=O)C1=C2c3ccc4ccccc4c3CC(C)(C)N2C(=O)C1=O	16
CC1=C(C(=O)OCc2ccccc2)C(c2ccc(C(F)(F)F)cc2)NC(=O)N1CCCCCC(=O)O (stereo unspecified)	3
Cc1ccsc1-c1nc(CN2CCN(C)C(=O)[C@@H]2C)c(C)o1	17
COc1cccc(Nc2nnc(SCC3CCCCO3)s2)c1 (stereo unspecified)	6
COc1ccccc1C/C(N)=N/OC(=O)COc1cccc(C)c1C	-8
CCOC(=O)c1nn(-c2ccccc2)c(C#N)c1N	-3
CCOC(=O)C(=NC1CCS(=O)(=O)C1)NNc1ccccc1Cl (stereo unspecified)	9
COc1cc(Cl)c(C)cc1NC(=O)Cc1ccc(OC)c(OC)c1	21
COc1ccc(/C=C2\N=C(C)N(c3ccc(C(=O)O)cc3)C2=O)cc1OC	11
Cc1ccc(CN2CCN(Cc3cn(C)nc3-c3ccccc3)CC2CCO)o1 (stereo unspecified)	-2
Cc1ccsc1/C=N/NC(=O)c1ccc(Cn2cc(Br)cn2)o1	5
CCCCNC(=O)C1CCN(c2nc(OC)nc(OC)n2)CC1	3

Brought forward from above: seven compounds, followed by the next part.
SMILES	Calb biofilm kill
CCOC(=O)c1nn(-c2ccccc2)c(C#N)c1N	-3
CCOC(=O)C(=NC1CCS(=O)(=O)C1)NNc1ccccc1Cl (stereo unspecified)	9
COc1cc(Cl)c(C)cc1NC(=O)Cc1ccc(OC)c(OC)c1	21
COc1ccc(/C=C2\N=C(C)N(c3ccc(C(=O)O)cc3)C2=O)cc1OC	11
Cc1ccc(CN2CCN(Cc3cn(C)nc3-c3ccccc3)CC2CCO)o1 (stereo unspecified)	-2
Cc1ccsc1/C=N/NC(=O)c1ccc(Cn2cc(Br)cn2)o1	5
CCCCNC(=O)C1CCN(c2nc(OC)nc(OC)n2)CC1	3
CC(=O)Oc1ccc(C(=O)Nc2ccccc2C(=O)N2CCCCC2)cc1	12
O=C(CSc1ccc(-c2cccc([N+](=O)[O-])c2)nn1)NC1CCCC1	8
COc1ccc(CCNC(=O)COc2ccc(-c3ccc(C#N)cc3)cc2)cc1	21
CCOC(=O)c1c(C)[nH]c(C)c1C(=O)COC(=O)/C=C/c1cccc(Cl)c1	18
O=C(O)c1cc(Cl)c(Cl)cc1C(=O)N1CCOCC1	7
COc1ccccc1Nc1nc(N)nc(CN2CCCCC2)n1	18
CN1CCN(c2ccc([N+](=O)[O-])cc2/C=N/NC(=O)c2cccc([N+](=O)[O-])c2)CC1	13
CC1CCCCN1c1ncnc(N)c1[N+](=O)[O-] (stereo unspecified)	16
C=CCc1c(NCCO)nc(C)[nH]c1=O	6
CC1OC(OC2C(OC3C(O[C@H]4CC[C@]5(C)C6C=C[C@]78OC[C@@]9(CC[C@@H](C)[C@H](C)C97)[C@H](O)C[C@@]8(C)[C@]6(C)CC[C@H]5C4(C)C)OC(C)C(O)C3O)OC(CO)C(O)C2O)C(O)C(O)C1O (stereo partly specified)	6
O=c1c(S(=O)(=O)c2ccc(Cl)cc2)cn(Cc2ccccc2F)c2ccc(F)cc12	4
Fc1ccccc1-c1nc2ncccc2o1	1
N#Cc1cc(C(=O)c2cc(F)ccc2O)cn(Cc2ccccc2)c1=O	15
CCCC(=O)Nc1sc2c(c1C(=O)OC)C(C(=O)OC)CC2 (stereo unspecified)	14
Nc1ccc(N2CCN(c3ccc(F)cc3)CC2)cc1	10
COc1ccc(C2=NN(Cc3ccccc3)C3C(=O)NC(=O)C23)cc1 (stereo unspecified)	-7
Nc1ccc(C(=O)Nc2ccc(Nc3ccncc3)cc2)cc1	5
O=C(Nc1ccc(F)cc1)/C(=C1/CCCCCN1)[N+](=O)[O-]	6
COc1ccc2o/c(=N/NC(=S)Nc3ccccc3)c(C(N)=O)cc2c1	13
CC1CCCCC1NCC#CCOc1ccc(Cl)cc1 (stereo unspecified)	20
Cc1ccc(S(=O)(=O)N(C)c2ccc(C(=O)Nc3c(C)n(C)n(-c4ccccc4)c3=O)cc2)cc1	17
CCOc1cc(N2CCOCC2)c(OCC)cc1NC(=O)c1ccc2ccccc2n1	8
CC(C)(C)OC(=O)N1CCC(c2cc(-c3cccs3)n[nH]2)CC1	18
CN1CCN(NC(=S)NC2CCCC2)CC1	8
O=C(COC(=O)c1c2c(nc3ccccc13)/C(=C\c1cccs1)CCC2)Nc1ccccc1	4
O=[N+]([O-])c1ccc(OCC2CC(c3ccccc3)=NO2)cc1 (stereo unspecified)	13
O=C(COC(=O)CC1CC2CCC1C2)Nc1ccc(F)cc1 (stereo unspecified)	15
NC(=O)N/N=C/c1sc(=O)n(-c2ccccc2)c1Cl	24
CC(C)c1nc(SCC(=O)Nc2ccc([N+](=O)[O-])cc2Br)n[nH]1	6
CSc1cccc(NC(N)=O)c1	15
Cc1cc(Cl)ccc1Oc1ccc(C(N)=O)cc1[N+](=O)[O-]	17

High-throughput results: PubChem, PCMD

These rows are one share of the data; count on the stated rates, not on these rows.
